Screening data from PubChem BioAssay.
NPYLR7 agonist: mosquito NPYLR7 agonism | activation, % at 10 µM | AID 1259423 | HEK293T NPYLR7/Galpha15, GCaMP6s calcium fluorescence | hit rate 0.15% among 270,000; in the data active means activation above about 40%;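 further: 0% = vehicle and 100% = reference agonist at the receptor; some compounds past the cut are filed as inactive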
NPYLR7 agonist max-min: second read-out of NPYLR7 agonist, no call of its own (marks repeat the call); activation, %; measured here: Max-Min RFU normalised activation; some inactives read as strong as hits;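 span of the calcium signal over five minutes; 0% = vehicle and 100% = native peptide agonist; compound fluorescence can raise it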
Active calls of the source: *; & = joins results of further samples. An excerpt, so the mix of outcomes need not match the whole.

COc1c(C)cnc(CNC(=O)c2csc3c2CCCC3)c1C was read as NPYLR7 agonist -4 and NPYLR7 agonist max-min -9.
Screening Cc1cn2c3c(=O)n(Cc4ccc(Br)cc4)c(=O)n(C)c3nc2n1C returned NPYLR7 agonist 2 and NPYLR7 agonist max-min 3.
O=C(Cc1ccccc1)Nc1cccc(-c2ccc3nncn3n2)c1 was read as NPYLR7 agonist -11 and NPYLR7 agonist max-min -4.
Screening CCCN(CC(=O)Nc1cc(-c2ccccc2)nn1-c1ccc(F)cc1)C(=O)Nc1ccccc1C(F)(F)F returned NPYLR7 agonist 0 and NPYLR7 agonist max-min 11.
CSc1ccc(C=NN2CCN(C)CC2)cc1 was read as NPYLR7 agonist -1 and NPYLR7 agonist max-min -1.
`C#CCn1c(=NC(=O)c2cccc(S(C)(=O)=O)c2)sc2ccccc21` gave NPYLR7 agonist 3 and NPYLR7 agonist max-min -2.
`COCCN(Cc1ccc(OS(=O)(=O)c2cccc(C(F)(F)F)c2)cc1)C(=O)Nc1ccc(F)c(Cl)c1` gave NPYLR7 agonist -7 and NPYLR7 agonist max-min -6.
CC(CC(N)=O)NCCc1ccccc1F (centres undefined) was read as NPYLR7 agonist -2 and NPYLR7 agonist max-min -5.
CC(C)CCSc1nc(N2CCOCC2)c2c(c1C#N)CC(C)(C)OC2 was read as NPYLR7 agonist 5 and NPYLR7 agonist max-min 2.
`COCCN1CCC(C(=O)N2CCN(C)C3(CCN(C)CC3)C2)C1` (centres undefined) gave NPYLR7 agonist 1 and NPYLR7 agonist max-min -3.
For CCOC(=O)c1ccc(NC(=O)N(CCOC)CC(=O)N(CCc2c[nH]c3ccccc23)Cc2ccc(OC)c(OC)c2)cc1 the results were NPYLR7 agonist -5 and NPYLR7 agonist max-min 5.
Screening O=C(NCC1(Cn2cccn2)CC1)C1CCCN(Cc2ccco2)C1 (centres undefined) returned NPYLR7 agonist -2 and NPYLR7 agonist max-min -3.

Overlap with the part before: 3 entries, followed by the next part.
`COCCN1CCC(C(=O)N2CCN(C)C3(CCN(C)CC3)C2)C1` (centres undefined) gave NPYLR7 agonist 1 and NPYLR7 agonist max-min -3.
For CCOC(=O)c1ccc(NC(=O)N(CCOC)CC(=O)N(CCc2c[nH]c3ccccc23)Cc2ccc(OC)c(OC)c2)cc1 the results were NPYLR7 agonist -5 and NPYLR7 agonist max-min 5.
Screening O=C(NCC1(Cn2cccn2)CC1)C1CCCN(Cc2ccco2)C1 (centres undefined) returned NPYLR7 agonist -2 and NPYLR7 agonist max-min -3.
`CC1(C(=O)Nc2ccc(Cl)c(Cl)c2)CCN1C(=O)C/C=C/c1ccccc1` (centres undefined) gave NPYLR7 agonist -2 and NPYLR7 agonist max-min 1.
For CN(NC(=O)c1cccnc1Nc1cccc(C(F)(F)F)c1)c1ccccc1 the results were NPYLR7 agonist -16 and NPYLR7 agonist max-min -23.
`COc1ccc(N2C(=O)CN(C(=O)c3ccc(F)cc3F)CC23CCCC3)cc1` gave NPYLR7 agonist 13 and NPYLR7 agonist max-min 2.
`Cc1nccn1-c1ccc(CNS(C)(=O)=O)cc1` gave NPYLR7 agonist -18 and NPYLR7 agonist max-min -28.
Screening CCN1C(=O)N(Cc2cccc(OC)c2)C(=O)C12CCN(Cc1cnn(C)c1C)CC2 returned NPYLR7 agonist 6 and NPYLR7 agonist max-min -8.
`CCn1c(C)cc(C(=O)NC(C)C)c1C` gave NPYLR7 agonist 2 and NPYLR7 agonist max-min -3.
CC(C)NCC(O)COc1cc(=O)oc2ccccc12 (centres undefined) was read as NPYLR7 agonist 6 and NPYLR7 agonist max-min 4.
Screening O=C(C1CCCO1)N1CCN(Cc2ccc(-c3noc(-c4ccccc4)n3)cc2)CC1 (centres undefined) returned NPYLR7 agonist 4 and NPYLR7 agonist max-min 3.
`Cc1ccc(C2(CCN)CCOC(C(C)C)C2)cc1` (centres undefined) gave NPYLR7 agonist -1 and NPYLR7 agonist max-min -2.
For CCC(C)(C)NC(=O)c1cc([N+](=O)[O-])ccc1Cl the results were NPYLR7 agonist -1 and NPYLR7 agonist max-min -2.
For O=C(C1COC2(CCCCC2)N1C(=O)c1ccc(Cl)cc1)N1CCCC1 (centres undefined) the results were NPYLR7 agonist -3 and NPYLR7 agonist max-min 6.
O=C(Cn1nc(-c2ccccc2)c2sc(N3CCCCC3)nc2c1=O)NCCc1ccccc1 was read as NPYLR7 agonist -3 and NPYLR7 agonist max-min -6.

The list goes on; it opens with the 2 that closed the last part.
For O=C(C1COC2(CCCCC2)N1C(=O)c1ccc(Cl)cc1)N1CCCC1 (centres undefined) the results were NPYLR7 agonist -3 and NPYLR7 agonist max-min 6.
O=C(Cn1nc(-c2ccccc2)c2sc(N3CCCCC3)nc2c1=O)NCCc1ccccc1 was read as NPYLR7 agonist -3 and NPYLR7 agonist max-min -6.
For CCc1nc2ccc(C(=O)NCCCN(C)C)cn2c1N(CC)CCOC the results were NPYLR7 agonist -2 and NPYLR7 agonist max-min -7.
`COc1ccccc1-n1c(Cc2ccccc2)nnc1SCc1cccc(C(F)(F)F)c1` gave NPYLR7 agonist -1 and NPYLR7 agonist max-min -1.
For CCCc1c(C)nn(-c2ccc(C(=O)NCCNc3cccc4ccccc34)cc2)c1C the results were NPYLR7 agonist -4 and NPYLR7 agonist max-min -7.
Screening O=c1sc(N2CCN(c3ccc(F)cc3)CC2)nc2ccsc12 returned NPYLR7 agonist -2 and NPYLR7 agonist max-min 0.
COc1ccccc1C1NC(=O)NC2=C1C(=O)N(CCC(C)C)C2 (centres undefined) was read as NPYLR7 agonist 4 and NPYLR7 agonist max-min 2.
`CC(C)Cc1cc(-c2nn3c(C(F)(F)F)nnc3s2)n[nH]1` gave NPYLR7 agonist -9 and NPYLR7 agonist max-min -20.
For Cc1cccc(CN2CCN(Cc3sc(N(C)C)nc3Cl)CC2)c1 the results were NPYLR7 agonist 1 and NPYLR7 agonist max-min 1.
Screening CCn1cc(C(=O)O)c2nn(-c3ccccc3)c(=O)c-2c1 returned NPYLR7 agonist -7 and NPYLR7 agonist max-min -10.
CC(C)(C)c1ccc(CSc2nnc(N)s2)cc1 was read as NPYLR7 agonist 6 and NPYLR7 agonist max-min 1.
Screening CCNC(=O)NC1CCN(c2ccccc2C(=O)N2CCc3ccccc3C2)CC1 returned NPYLR7 agonist 21 and NPYLR7 agonist max-min 10.
Screening CCN(CC)C1=CC2=CC(=C(C#N)C#N)CCC2CC1 (centres undefined) returned NPYLR7 agonist 615* and NPYLR7 agonist max-min 843*.
Screening COc1cc(N/N=C(/C)c2cccc(C(F)(F)F)c2)nc(SC)n1 returned NPYLR7 agonist 4 and NPYLR7 agonist max-min 9.
`Cc1ccccc1C(=O)NC(C)CN1CCCC(C)C1` (centres undefined) gave NPYLR7 agonist -2 and NPYLR7 agonist max-min -2.
`COc1ccc(-c2nnc(SCc3cccc(C#N)c3)n2C2CCCCC2)cc1OC` gave NPYLR7 agonist 5 and NPYLR7 agonist max-min 4.
`Cc1ccc2nc(N3CCC(C)CC3)c(C=C3SC(=S)N(CC(C)C)C3=O)c(=O)n2c1` gave NPYLR7 agonist 4 and NPYLR7 agonist max-min 5.
Screening CC(=O)N1N=C(C2C(=O)NC(=O)N(c3ccc(Cl)cc3)C2=O)CC1c1ccccc1 (centres undefined) returned NPYLR7 agonist 7 and NPYLR7 agonist max-min 41.
Screening CCN(CC)C(=O)C1(c2ccccc2)CC1CN (centres undefined) returned NPYLR7 agonist -9 and NPYLR7 agonist max-min -6.
`CCOC(=O)CC(=O)Nc1ccc(-c2onc3c2CCCC3)cc1` gave NPYLR7 agonist 0 and NPYLR7 agonist max-min -5.
`COc1ccccc1CN(C)C(=O)c1c[nH]c(=S)n1-c1ccccc1` gave NPYLR7 agonist 0 and NPYLR7 agonist max-min 1.
`O=c1c2ccccc2nc2sc(Nc3ccc(F)cc3F)nn12` gave NPYLR7 agonist 9 and NPYLR7 agonist max-min 5.
Cc1ccc(C=NNc2ccc3ccccc3n2)o1 was read as NPYLR7 agonist 4 and NPYLR7 agonist max-min 1.
For CN(C(=O)c1ccc(NC(=O)NC2CCS(=O)(=O)C2)cc1Cl)C1CCCCC1 (centres undefined) the results were NPYLR7 agonist -7 and NPYLR7 agonist max-min -8.
`CC(=O)c1cc(Cl)cc(CN2CCN(C(=O)c3ccc(C)s3)CC2)c1O` gave NPYLR7 agonist 10 and NPYLR7 agonist max-min 9.
For CN(C)c1ccc(P(=O)(C2=C(O)CCC2)C2=C(O)CCC2)cc1 the results were NPYLR7 agonist 8&2 and NPYLR7 agonist max-min 5&85.
CN1CCN(C(=O)c2ccc(Cn3cc(Cl)cn3)o2)CC1 was read as NPYLR7 agonist -3 and NPYLR7 agonist max-min -6.
`Cc1ccc(C(=O)NC(C(=O)N2CCCC2)C2CCN(C(=O)c3ccc(C)cc3)CC2)cc1` (centres undefined) gave NPYLR7 agonist 11 and NPYLR7 agonist max-min 10.
For CCOC(=O)c1c(NC(=O)C(Cl)(Cl)Cl)c(-c2ccc3c(c2)OCO3)cn1C the results were NPYLR7 agonist 6 and NPYLR7 agonist max-min 7.
For CC(C)(C)OC(=O)NC(CCC(=O)N1CCC2(CC1)CC(=O)c1cc(F)ccc1O2)C(=O)N1CCC2(CC1)CC(=O)c1cc(F)ccc1O2 (centres undefined) the results were NPYLR7 agonist -3 and NPYLR7 agonist max-min -12.
O=C(OCCOc1ccccc1)C(C(F)(F)F)C(F)(F)F was read as NPYLR7 agonist 9 and NPYLR7 agonist max-min 4.
For CC1CC1c1ccc(CN(c2cc(Cl)nc(N)n2)C2CC2)o1 (centres undefined) the results were NPYLR7 agonist 2 and NPYLR7 agonist max-min 3.
For Cc1nsc(N2CCSC(C)C2C)n1 (centres undefined) the results were NPYLR7 agonist 19 and NPYLR7 agonist max-min 13.
CC1=C(C(=O)OCc2ccccc2)C(c2ccc(N(C)C)cc2)C2=C(CCCC2=O)N1 (centres undefined) was read as NPYLR7 agonist -2 and NPYLR7 agonist max-min -7.
Screening O=C(Oc1c(Cl)ccc2ccccc12)N1CCOCC1 returned NPYLR7 agonist -5 and NPYLR7 agonist max-min -7.
For Cc1[nH]n(-c2ccccc2)c(=O)c1C(=O)c1ccc(S(=O)(=O)N2CCCC2)cc1 the results were NPYLR7 agonist 11 and NPYLR7 agonist max-min 3.
For CCN(CC1CCOCC1)C(=O)c1cc(-c2ccccc2Cl)oc1C the results were NPYLR7 agonist 12 and NPYLR7 agonist max-min 10.
`C=CC[C@@H]1CC=C[C@@H](C)N1C(=O)CCN1CCCO1` gave NPYLR7 agonist 8 and NPYLR7 agonist max-min 4.
For O=C(C(=O)N1CCN(Cc2cc(=O)c(OCc3ccccc3Cl)co2)CC1)c1c[nH]c2ccccc12 the results were NPYLR7 agonist 26 and NPYLR7 agonist max-min 11.
`CCN(Cc1cccc(N)c1)C(=O)C(F)(F)F` gave NPYLR7 agonist -8 and NPYLR7 agonist max-min -9.
Screening CC(/C=C1\N=C(c2ccc(F)cc2)OC1=O)=C\c1ccccc1 returned NPYLR7 agonist -3 and NPYLR7 agonist max-min -7.
`CN(CCc1ccccc1)C(=O)c1cccc(-n2ccnc2)c1` gave NPYLR7 agonist -2 and NPYLR7 agonist max-min -2.
`O=C(CN1C(=O)c2ccccc2C1=O)N1CCN(C(c2ccccc2)c2ccccc2)CC1` gave NPYLR7 agonist 4 and NPYLR7 agonist max-min -2.
For O=C(Nc1cc(C(F)(F)F)cc(C(F)(F)F)c1)Nc1ccc(N2CCCC2)c(C(=O)NCCc2ccccc2)c1 the results were NPYLR7 agonist -4 and NPYLR7 agonist max-min -7.
Screening CSc1ccccc1C(=O)NCc1c(C)ncc2c1CCN(C(=O)c1ccc(OC(C)C)cc1)C2 returned NPYLR7 agonist 17 and NPYLR7 agonist max-min 2.
`Cc1cc(C)c2c(NCSCc3ccccc3)c(C#N)sc2n1` gave NPYLR7 agonist 0 and NPYLR7 agonist max-min -2.
O=C(CN1CCc2onc(-c3ccc(F)c(F)c3)c2C1)NCc1ccco1 was read as NPYLR7 agonist 22 and NPYLR7 agonist max-min 25.
For CN(CCc1ccccc1)Cc1cc(C(=O)N2CC[C@H](O)C2)no1 the results were NPYLR7 agonist 34 and NPYLR7 agonist max-min 22.
`COc1ccc(-n2ncc3c2CC(C)(C)CC3NC(=O)c2c(C)cc(=O)oc2C)cc1` (centres undefined) gave NPYLR7 agonist -9 and NPYLR7 agonist max-min -10.
For COC1=C(OC)C(=O)c2ccccc2C1=O the results were NPYLR7 agonist -6 and NPYLR7 agonist max-min -10.
O=C(Nc1ccc(SCCN2CCCCCC2)nn1)C1CC1 was read as NPYLR7 agonist 2 and NPYLR7 agonist max-min 5.
For CNC(=O)Cn1c(-c2nnc(C)o2)cc2ccccc21 the results were NPYLR7 agonist -10 and NPYLR7 agonist max-min -6.
Screening CC(=O)Oc1c(-c2ccc(NC(=O)C3CC3)cc2)c(C2CC2)nn1-c1ccccc1C returned NPYLR7 agonist 17 and NPYLR7 agonist max-min 19.
`Cc1cc(C)n(CC(C)NCc2cnc(-c3ccccc3C)s2)n1` (centres undefined) gave NPYLR7 agonist -4 and NPYLR7 agonist max-min -5.
For O=C(Nc1cccc(-c2ccc(F)cc2)c1)C1CCCN(C(=O)c2ccoc2)C1 (centres undefined) the results were NPYLR7 agonist 4 and NPYLR7 agonist max-min 0.
Screening CC(NC(=O)c1nn(C)c(=O)c2ccccc12)c1ccc(Cl)cc1 (centres undefined) returned NPYLR7 agonist 0 and NPYLR7 agonist max-min 1.

Nothing new here: entries from further up.
For Cc1nsc(N2CCSC(C)C2C)n1 (centres undefined) the results were NPYLR7 agonist 19 and NPYLR7 agonist max-min 13.
CC1=C(C(=O)OCc2ccccc2)C(c2ccc(N(C)C)cc2)C2=C(CCCC2=O)N1 (centres undefined) was read as NPYLR7 agonist -2 and NPYLR7 agonist max-min -7.
Screening O=C(Oc1c(Cl)ccc2ccccc12)N1CCOCC1 returned NPYLR7 agonist -5 and NPYLR7 agonist max-min -7.
